# VACV Venus inh: vaccinia inhibition (Venus reporter). Vaccinia virus Venus reporter expression, fluorescence. Potency, µM (doses to about 36.5 µM), without a hit: top-dose activity change, negative = inhibition, actives largely listed as inhibitors. hit rate 0.46% among 330,000; active means well fitted inhibition curve with a large enough effect; inconclusive means small, poorly fitted or top-dose-only effect; inactive means no such curve, though single readings can be large or run the other way; tested in A549 cells; also: nearly all actives have a fitted effect of over 30% in size; inactives centre near -10
# VACV mCherry inh: inhibitors of vaccinia virus infection (mCherry reporter signal); Potency, µM (titrated, usually from 36.5 µM), without a hit: top-dose activity change, negative = inhibition, actives largely listed as inhibitors; Vaccinia virus mCherry reporter infection, fluorescence; about a quarter of the inactives have no number; hit rate 0.63% among 310,000; active = well fitted inhibition curve with a large enough effect; inconclusive = small, poorly fitted or top-dose-only effect; inactive = no such curve, though single readings can be large or run the other way; tested in A549 cells; also: nearly all actives have a fitted effect of over 35% in size; inactives centre near -10
# The depositor's hits bear a star; i = inactive; ? = inconclusive; . = not tested or not shown; & = joins results of further samples; [ ] = another dose, or the depositor's remark. % is scaled to controls: 0 for no effect and ±100 for the full control effect; potency is read from the fitted curve at half-maximal effect. Compounds were not picked by outcome. About 0.86% of those tested had a hit in this group.
SMILES,VACV Venus inh,VACV mCherry inh
CN(C(=O)c1cccc(C#N)c1)c1nnc(C2CCCO2)s1 (configuration not stated),2%,-10%
Cc1c(Cl)cccc1NS(=O)(=O)c1ccc(NS(=O)(=O)c2ccc3c(c2)OCCO3)cc1,-6%,3%
Cc1ncoc1C(=O)N1CCCC(C(=O)c2cccc(C(F)(F)F)c2)C1 (configuration not stated),3%,-4%
CCOC(=O)C(CCc1ccccc1)NC(C)C(=O)N1C(C(=O)O)CC2CCCC21 (configuration not stated),14%,-2%
CCN(CCCNC(=O)Cn1ncc2c([nH]c3ccc(C)cc32)c1=O)c1cccc(C)c1,-9%&8%,-14%&4%
COc1ccc2c(c1)Cc1sc(NC(=O)c3cccc(Br)c3)nc1-2,-22%,-21%
COC(=O)c1nc(N)sc1-c1ccccc1,-19%,i
CC1(C)N=C(SCC(=O)Nc2ccccc2)C(c2ccc(Cl)cc2)=N1,-29%,?
C=C1c2ccccc2O[C@H](C(=O)OCC)[C@@H]1C1CCCCC1,-2%,i
CC1=C(C(=O)Nc2ccccc2)C(c2cccnc2)n2nc(SCc3ccccc3F)nc2N1 (configuration not stated),-6%,-21%
CCOC(=O)N1CCC(N2CCCC(CO)(Cc3ccccc3C)C2)CC1 (configuration not stated),-2%,i
Cn1ccnc1SCC(=O)Nc1cccc(Br)c1,28%,9%
O=C(CN1CCCCC1)Nc1ccccc1NC(=O)CN1CCCCC1,-8%,-11%
COc1ccccc1Cc1c(C(C)(C)C)nc2cc(C)c(Br)c(C)n12,-7%,-3%
O=C(NCc1ccncc1)[C@@H]1CCCN1C(=O)[C@H]1CCCN1C(=O)c1ccccc1,-4%,i
Cc1cccc(-c2noc(CN(C(=O)c3c(-c4ccccc4Cl)noc3C)C(C)C)n2)c1,-10%,5%
c1cnc(N2CCN(c3ccc4ccccc4n3)CC2)nc1,5%,-7%
Cc1ccc(NC(=O)Cc2ccc(Cl)cc2)nc1,-12%,i
COc1ccc(C(=O)N(Cc2ccco2)Cc2ccccc2F)cc1Cl,-5%,-12%
O=C(CN1CCCCCCC1)Nc1cc(Cl)cc(Cl)c1,-11%,?
O=C(Nc1ccc(S(=O)(=O)N2CCCC2)cc1)N1c2ccccc2Sc2ccccc21,-6%,-6%
CCCCC(=O)Nc1nc(C)c(-c2csc(Nc3cc(Cl)ccc3OC)n2)s1,-26%,?
COc1ccc(NC(=O)c2cccc(NC(=O)C3C4CC5OC(=O)C3C5C4)c2)c(OC)c1 (configuration not stated),-7%,.
Cc1nc2ccccc2n1CC(=O)N1CC(=O)Nc2ccccc21,-17%,2%
CCn1ccc2c(OCC(=O)NCc3ccc(C)cc3)cccc2c1=O,-11%,-11%
Oc1ccc(Cl)cc1CNCC1CCCCC1,-30%,-23%
C=CCOc1cccc(C2C(C(=O)c3ccc(C)o3)=C(O)C(=O)N2CCN(C)C)c1 (configuration not stated),-14%,?
CCN(C(=O)Cn1ncc2c1-c1cc(C)ccc1OC2)c1cc(Cl)ccc1OC,-19%,-23%
Cc1nc(SCC(=O)Nc2ccc(F)cc2)c2oc3ccccc3c2n1,5%,-4%
Cc1ccc(NC(=O)Cn2cnc3cc([N+](=O)[O-])ccc3c2=O)c(Cl)c1,-3%,8%
Cc1cccc(C(=O)Nc2nnc(SCc3cc(=O)n4cccc(C)c4n3)s2)c1,-8%,i
O=C(CCCN1C(=O)c2cccnc2C1=O)Nc1ccccc1F,-10%,-1%
Cc1cccc(N2CCN(C(=O)Cc3c(C(=O)O)c(C)cn3C)CC2C)c1 (configuration not stated),-14%,-8%
CCOC(=O)c1sc(NC(=O)COC(=O)Cn2cnc3ccccc32)c(C(=O)OCC)c1C,-4%,i
O=C(O)c1ccc(N/N=C/c2ccc3c(c2)OCO3)cc1,-12%,-17%
O=C(NC(NC(=S)Nc1ccccc1)C(Cl)(Cl)Cl)c1cccc(Cl)c1 (configuration not stated),?,?
O=C(/C=C/c1ccc(S(=O)(=O)NCc2ccco2)cc1)N1CCN(c2ccccc2)CC1,-8%,-6%
CC1(C(=O)Nc2ccccc2Br)CCN1C(=O)Cc1ccc(Cl)cc1Cl (configuration not stated),3%,19%
Cc1nn(C(C)(C)C)c(OC(=O)c2c(F)cccc2F)c1Sc1ccccc1,-8%,-24%
CC1=CC(C)(C)Nc2cc(C)c(C)cc21,-3%,.
N#Cc1cc([N+](=O)[O-])ccc1NC(=O)c1cccn(Cc2cccc(F)c2)c1=O,-13%,i
CCn1cc(CNC(=O)c2cc(-c3ccc(C)c(C)c3)nc3ccccc23)c(C)n1,-11%,-9%
COc1ccc(N2CCN(C(CNC(=O)C3CCCCC3)c3ccco3)CC2)cc1 (configuration not stated),-11%,i
Cc1ccc(CNC(=O)CCSCc2ccc(C)cc2)cc1,-12%,i
COc1cccc(-c2noc(CCCC(=O)NCc3ccco3)n2)c1,-1%[7.34 µM],-2%[7.34 µM]
O=c1c2ccccc2c(C=Nc2ccc(O)cc2)c(O)n1-c1nccs1,1%,-13%
COCc1cc(C)nc(SCC(=O)Oc2ccc(Cl)cc2)c1C#N,-1%,-2%
CCn1c(C(=O)NCc2ccc(OC(C)C)cc2)cc2oc3ccccc3c21,6%,-9%

# Ordered by SMILES length (low to high): 3 of the compounds above
SMILES,VACV Venus inh,VACV mCherry inh
O=c1c2ccccc2c(C=Nc2ccc(O)cc2)c(O)n1-c1nccs1,1%,-13%
CC1(C(=O)Nc2ccccc2Br)CCN1C(=O)Cc1ccc(Cl)cc1Cl (configuration not stated),3%,19%
COc1ccc(N2CCN(C(CNC(=O)C3CCCCC3)c3ccco3)CC2)cc1 (configuration not stated),-11%,i

# (further entries)
SMILES,VACV Venus inh,VACV mCherry inh
CN(C)C(=O)COC(=O)/C=C/c1cn(-c2ccccc2)nc1-c1cccs1,-10%,-18%
Cc1cc(C)cc(NC(=S)N(C)C)c1,-2%,-5%
Cn1c(=O)c2c(nc(NCc3ccco3)n2CCc2ccccc2)n(C)c1=O,?,.
CC(=O)c1cccc(NC(=O)CSc2ccc(-c3ccccn3)nn2)c1,-24%,?
CC(C)CNC(=O)Cn1nc(C(F)(F)F)c2c1CCCC2,-4%,i
COc1ccc(CCNC(=O)CS(=O)Cc2nc(-c3ccc(C)cc3)oc2C)c(OC)c1 (configuration not stated),-14%,-4%
Cc1cccc(OCC(=O)Nc2ccccc2N2CCCC2)c1C,-27%,-25%
C[C@H](CO)N1C[C@H](C)[C@@H](CN(C)S(=O)(=O)c2ccc(F)cc2)Oc2c(NC(=O)CCC(F)(F)F)cccc2C1=O,-16%,-27%
CCCCNC(=O)C1(C)CCN1C(=O)c1cc2ccccc2s1 (configuration not stated),-5%,-3%
C=CC[C@@H](C)CC(=O)C(CCCN=[N+]=[N-])SOOc1ccccc1 (some centres not stated),-10%,-3%
CCc1ccc(C(=O)CC2(O)C(=O)N(Cc3ccc(C)cc3)c3ccccc32)cc1 (configuration not stated),-6%[7.34 µM],-4%[7.34 µM]
CCOc1ccccc1C(=O)NC1CCN(Cc2ccccc2)CC1,-10%,-3%
COc1ccccc1-c1cc(NC(=O)COc2ccccc2Cl)n(-c2ccccc2)n1,-4%,-7%
Nc1c(C(=O)OCC2CCCO2)c2nc3ccccc3nc2n1Cc1cccs1 (configuration not stated),-25%,.
C=CCOc1ccc(Br)cc1/C=C1\NC(=S)N(C(C)=O)C1=O,5%,-5%
O=C(NCc1cccc(Br)c1)c1cc(-c2ccccc2)nn1CC1CC(c2cccnc2)=NO1 (configuration not stated),-27%,i
COCCCNc1nc2nonc2nc1N1CCN(C2CCCC2)CC1,-8%,i
COc1ccccc1NC(=O)CSc1nnnn1C1CCCCC1,-13%,-15%
CCCCCCCCCCCn1nnnc1N,-6%,-10%
COc1cc2c(c(OC)c1OC)-c1ccc(NC(=O)c3ccc(F)cc3)c(=O)cc1[C@@H](NC(C)=O)CC2,?,-28%
CCn1c(=O)n(CC)c2cc(S(=O)(=O)N3CCOCC3)ccc21,-9%,-12%
COCc1c(C(=O)Nc2ccc3nc(N4CCOCC4)sc3c2)oc2ccccc12,-26%,?
CCc1ccc(NC(=O)CSc2nnc(-c3nonc3NC(C)=O)n2-c2ccccc2)cc1,-23%,-10%
COc1ccc(OC)c(S(=O)(=O)N2CCCCC2C(=O)O)c1 (configuration not stated),-14%,-13%

# A second format for part of the listing above.
Cc1cc(C)cc(NC(=S)N(C)C)c1
- VACV Venus inh: -2%
- VACV mCherry inh: -5%

Cn1c(=O)c2c(nc(NCc3ccco3)n2CCc2ccccc2)n(C)c1=O
- VACV Venus inh: ?
- VACV mCherry inh: .

CC(=O)c1cccc(NC(=O)CSc2ccc(-c3ccccn3)nn2)c1
- VACV Venus inh: -24%
- VACV mCherry inh: ?

CC(C)CNC(=O)Cn1nc(C(F)(F)F)c2c1CCCC2
- VACV Venus inh: -4%
- VACV mCherry inh: i

# Additional entries.
SMILES,VACV Venus inh,VACV mCherry inh
COc1ccc(-c2cc(N)n(S(=O)(=O)Cc3ccccc3)n2)c(OC)c1,-10%,-9%
Cc1cccc(OCc2nnc(SCC(=O)NCC3CCCO3)n2C)c1 (configuration not stated),-7%,i
CC(=O)c1c(N2CCN(c3ccc(F)cc3)CC2)nc(=S)n(Cc2ccccc2)c1C,-23%,-4%
Cc1onc(-c2ccccc2)c1C(=O)NC(C)C,-10%,i
COc1ccc(-c2nnc(N3CCCCC3)c3ccccc23)cc1,?,.
CCOC(=O)COc1ccc(F)cc1C(=O)c1ccn2nc(-c3ccc(C)cc3)cc2n1,4%,-7%
CCOC(=O)c1ccccc1NC(=O)COc1ccccc1-c1nnc(-c2ccccc2)o1,-6%,-17%
CSC1=NCCN1C(=O)C(C)(C)Oc1ccc(Cl)cc1,-7%,5%
Cc1csc(=O)n1CCC(=O)OCC(=O)NCc1ccccc1,-12%,-23%
Cc1ccc(CNC(=O)C2CCCC2)cc1,7%,-8%
CC(=O)C1=NN(c2ccccc2)C(c2ccc3c(c2)OCO3)N1c1ccc(N2CCOCC2)cc1 (configuration not stated),-13%,-9%
O=C(NCc1ccccn1)C(=O)NCC1OCCN1S(=O)(=O)c1ccc(Br)cc1 (configuration not stated),3%,-14%
O=C(NNS(=O)(=O)c1ccc(Br)cc1)c1cccs1,-4%,i
O=C(NCC(c1ccco1)N1CCCC1)c1ccc(Cl)cc1 (configuration not stated),19%,7%
c1ccc(COc2ccc(-c3csnn3)cc2)cc1,5%,-5%
CCOc1ccc(OCC(=O)Nc2cc3c(cc2C(=O)O)OCCCO3)cc1,-2%,-9%
